# Sa growth 42C – S. aureus growth inhibition; AID 720641; hit rate 0.53% among 170,000; S. aureus RN4220 growth, OD600, 20 h, 42 °C; hits give low values; relative growth, % (test concentration not listed);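 active = growth at 42 °C up to 50% and 20 or more points under that at 30 °C, or under 10% at both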;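 note: 300 nL library stock went into each well; scaled to the means of positive and negative controls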
# GIV-Gai inh – GIV-Galpha-i interaction inhibition; P08753; Galpha-i3/FITC-GIV peptide fluorescence polarization, 90 min; hits give low values; scaled: aluminum fluoride 0%, vehicle 100%; percent of control (FP), % (concentration not given with the values); hit rate 0.42% among 210,000; AID 1224905;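 active = replicate mean at 85% of control or lower, very high polarization wells dropped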;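 note: wells of about 15 µL received 100 nL stock; the first replicate is given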
# Target sequence (P08753 whole entry, looked up): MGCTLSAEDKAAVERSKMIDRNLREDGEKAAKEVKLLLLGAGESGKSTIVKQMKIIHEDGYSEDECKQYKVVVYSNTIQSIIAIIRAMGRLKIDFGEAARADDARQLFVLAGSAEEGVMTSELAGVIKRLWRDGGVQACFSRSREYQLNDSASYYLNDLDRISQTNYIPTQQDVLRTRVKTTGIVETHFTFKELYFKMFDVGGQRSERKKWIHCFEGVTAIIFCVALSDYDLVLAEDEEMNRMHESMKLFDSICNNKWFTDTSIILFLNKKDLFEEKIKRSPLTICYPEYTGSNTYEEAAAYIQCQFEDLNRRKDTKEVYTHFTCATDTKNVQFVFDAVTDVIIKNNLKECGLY
# HCMV UL50-53 inh – cytomegalovirus nuclear egress complex inhibition; inhibition, % (test concentration not listed); hit rate 0.15% among 190,000; HTRF UL50-UL53 interaction, normalized percent inhibition;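 active = both replicates at 50% or more, plus weaker picks with an unusually low signal ratio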;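 note: stock transfer was 100 nL into about 20 µL; 0% = negative control wells and 100% = wells with untagged competitor protein; inactives centre near -12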
# Sa growth 42C second temp – further read-out of Sa growth 42C, marked with its call; relative growth, %; measured here: growth at 30 °C;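 optical density after 20 h as mean of two plates; 100% = untreated growth and lower means inhibition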
# Numbers without * were called inactive; · = no result given; & = joins results of further samples. Outcome played no part in choosing rows; 0.79% or so of the library scored in one or more.
SMILES,Sa growth 42C,Sa growth 42C second temp,GIV-Gai inh,HCMV UL50-53 inh
CC1CCC(C(C)C)C(OCC(O)CN2CCc3ccccc3C2)C1 (stereo unspecified),82,86,·,-13
CSc1ccc(/C=C2\SC(=O)N(CCNC(=O)CSCc3c(C)noc3C)C2=O)cc1,91,82,·,-51
Cc1cccc(NC(=O)C2CCC(CNS(=O)(=O)c3csc(C(N)=O)c3)CC2)c1C (stereo unspecified),80,87,98,·
CCC(=O)N1c2ccc(S(=O)(=O)CCC(=O)Nc3ccccc3OC)cc2CC1C (stereo unspecified),103,85,99,-16
C#CCOc1cccc(C=Nn2cnnc2)c1,113,76,104,-18
CC(C)(C)OC(=O)N1CCC(c2c(C(=O)NCc3ccco3)cnn2-c2ccc(F)cc2F)CC1,99,89,109,·
C(=C\c1ccccc1)/CSc1nnc(COc2ccccc2)n1Cc1ccco1,97,90,108,-4
CCOC(=O)C1CCCN(C(=O)c2ccc3c(c2)N(Cc2ccc(Cl)cc2)C(=O)c2ccccc2S3=O)C1 (stereo unspecified),103,81,100,-39
CC(C)(C)c1ccc(C(=O)N2N=C(c3ccc([N+](=O)[O-])cc3)CC2(O)C(F)(F)F)cc1 (stereo unspecified),·,·,99,-18
Cc1ccc(NC(=O)Nc2nnc(SCC(=O)Nc3ccc(F)cc3F)s2)cc1,102,86,97,·
Cc1onc(C(C)C)c1C(=O)O,92,78,97,-14
Cc1nc2c(c(=O)c3ccccc3n2C)c(=O)n1Cc1ccco1,91,85,101,-30
CCN(c1ccccc1)S(=O)(=O)c1ccc(N(C)C2CCCCC2)nc1,108,90,·,-12
O=c1c2c(-c3cccs3)csc2ncn1-c1ccccc1,114,69,·,-25
Cc1cc(CNS(=O)(=O)c2ccc(N3CCOCC3)nc2)c(C(F)(F)F)o1,102,86,105,-16
CC1CCN(C(=O)COC(=O)c2cccc(I)c2)CC1,112,95,·,-1
C=CCc1ccccc1OCc1cc(=O)n2nc(CC)sc2n1,92,66,106,-14
O=C(c1cccnc1)N1CCCC1c1cccc(F)c1 (stereo unspecified),·,·,106,-14
COCCCNC(=O)c1sc2nc(C)c(C(=O)Nc3ccc(C)cc3C)c(-c3ccc(Br)cc3)c2c1N,85,92,107,-10
CCOC(=O)c1cc2ccccc2cc1O,85,85,·,-43
Cc1cc2ncc(-c3ccccc3)nc2cc1C,104,78,100&95,-36&-24&-22&-44
C=CCn1c(SCC(=O)NCCCO)nc2sc3c(c2c1=O)CCCC3,·,·,100,-23
Cc1cccc(N2CCN(C(=O)c3cc4c(=O)oc5ccccc5c4s3)CC2)c1C,100,84,108,-16
CNC(=O)C1=C(N2CCCC2)c2ccccc2S1(=O)=O,·,·,103,-36
CNC(=O)/C=C1/N(C)c2ccccc2C1(C)C,101,103,·,0
O=C(c1ccco1)N1CCCC(c2nc(-c3ccc(S(=O)(=O)NCc4ccccc4)cc3)no2)C1 (stereo unspecified),83,81,105,-14
CCCCC1C(=O)NC(=Nc2nc(C)c3ccc(OC)cc3n2)NC1=O (stereo unspecified),118,114,108,-22
COc1cccc(C2C(C(N)=O)=C(C)Nc3nc(CCCO)nn32)c1 (stereo unspecified),112,92,101,·
CCOc1ccc(NC(=O)CSc2oc(-c3ccco3)nc2S(=O)(=O)c2ccc(C)cc2)cc1,92,90,102,-4
CC(=O)Oc1ccc2oc(-c3ccccc3)c(C(N)=O)c2c1,96,85,99,-14
CCOC(=O)c1ccc(NC(=O)CCS(=O)(=O)c2ccc(OC)cc2)cc1,87,85,·,4
O=S(=O)(NCc1ccco1)c1ccc(S(=O)(=O)N2CCCCC2)cc1,98,92,102,-16
CC1=CC(C)C(CNc2ccccc2)C(C)C1 (stereo unspecified),74,80,·,-16
Cc1ccc(S(=O)(=O)N(C)CC(=O)OCc2nc3ccccc3s2)cc1,108,93,·,-26
N#Cc1c(=O)c2cccnc2n2c1sc1ccccc12,97,105,·,12
O=C(O)c1cccc(Nc2ncnc3scc(-c4ccccc4)c23)c1,102,91,72*,-11
COc1ccc(C2c3cc(OC)c(OC)cc3CC(=O)N2c2ccc(C)cc2)cc1 (stereo unspecified),107,85,96,-20
COc1ccc(-c2nc(SC(CC(=O)NCc3ccco3)c3cc(OC)c(OC)c(OC)c3)n[nH]2)cc1 (stereo unspecified),132,97,103,5
CC(C)(C)n1ncc2c(=O)n(CC(=O)OCc3ccccc3)cnc21,109,89,102,·
CCOC(=O)c1cc2c(c(CSc3ccc(Cl)cc3)c1)OCOC2,98,88,101,·

# Five of the entries above in order of their number in GIV-Gai inh, lowest first.
mol | GIV-Gai inh
O=C(O)c1cccc(Nc2ncnc3scc(-c4ccccc4)c23)c1 | 72*
CC(=O)Oc1ccc2oc(-c3ccccc3)c(C(N)=O)c2c1 | 99
C=CCn1c(SCC(=O)NCCCO)nc2sc3c(c2c1=O)CCCC3 | 100
COc1cccc(C2C(C(N)=O)=C(C)Nc3nc(CCCO)nn32)c1 (stereo unspecified) | 101
COc1ccc(-c2nc(SC(CC(=O)NCc3ccco3)c3cc(OC)c(OC)c(OC)c3)n[nH]2)cc1 (stereo unspecified) | 103

# Two entries from above, with two lines to a compound:
# Each structure is followed by: Sa growth 42C, Sa growth 42C second temp, GIV-Gai inh, HCMV UL50-53 inh
COc1cccc(C2C(C(N)=O)=C(C)Nc3nc(CCCO)nn32)c1 (stereo unspecified)
  112, 92, 101, ·
CCOc1ccc(NC(=O)CSc2oc(-c3ccco3)nc2S(=O)(=O)c2ccc(C)cc2)cc1
  92, 90, 102, -4

# Next part
SMILES,Sa growth 42C,Sa growth 42C second temp,GIV-Gai inh,HCMV UL50-53 inh
O=C1CSC(=O)N1c1ccccc1,97,90,105,-9
COc1cccc2cc(-c3cn4c(n3)sc3cc(F)ccc34)c(=O)oc12,105,87,102,·
COc1ccc2cc3cc(C(=O)NCCN4CCN(c5ccccc5F)CC4)sc3nc2c1,103,91,103,·
O=C(Cc1cccs1)NCCOc1ccccc1F,92,84,·,-4
COc1cc(NC(=O)C(=O)Nc2ccc3nc4n(c(=O)c3c2)CCCCC4)cc(OC)c1OC,111,87,101,-19
CC(=O)N1c2ccc(S(=O)(=O)N(C)CC(=O)Nc3cccc(C)c3)cc2CC1C (stereo unspecified),104,93,102,-24
CC(=NCc1ccccc1)c1c(C)cc(C)cc1O,84,88,102,-6
O=C(CCC1CCCC1)N1CCN(Cc2c[nH]c3ccccc23)CC1,96,91,102,-10
O=S(=O)(c1cc(S(=O)(=O)C(F)(F)F)c(Cl)c(S(=O)(=O)C(F)(F)F)c1)C(F)(F)F,67,55,·,-91
O=c1[nH]c2ccccc2c2nc(-c3ccc(Cl)cc3)nn12,82,54,·,-14
COc1ccc(CN=CC2C(=O)N(c3nc4ccccc4s3)N=C2C(F)(F)F)cc1 (stereo unspecified),84,93,·,-6
CC(C)(Oc1ccc(C#N)cc1)C(=O)O,103,86,100,-1
Cc1ccc(C(=O)OCC2OC3C(Oc4c(C)c(=O)ncn43)C2OC(=O)c2ccc(C)cc2)cc1 (stereo unspecified),94,86,·,-22
COc1ccc(-c2nc(CCNC(=O)c3c(F)cccc3Cl)cs2)cc1,114,102,100,·
CCC1CCCCN1C(=O)c1nn(-c2ccc(OC)cc2)c(=O)c2c1c1ccccc1n2C (stereo unspecified),98,99,102,9
CCN(Cc1ccc(OC)c(F)c1)C(=O)C1CCCO1 (stereo unspecified),92,90,·,19
Cc1cccc(Nc2nc(N3CCc4ccccc43)ncc2F)c1C,109,94,103,-7
Cc1cccc(C)c1OCc1cc(=O)n2c(-c3ccccc3)csc2n1,94,72,107,-29
O=C1C=CC(=O)C(Sc2nnnn2-c2ccccc2)=C1,62,37,102,-16
O=S(=O)(c1ccc(F)c(F)c1)N1CCN(C/C=C/c2ccccc2)CC1,92,85,·,-29

# Some of the entries so far, with bars between the fields.
smiles | Sa growth 42C | Sa growth 42C second temp | GIV-Gai inh | HCMV UL50-53 inh
O=C(CCC1CCCC1)N1CCN(Cc2c[nH]c3ccccc23)CC1 | 96 | 91 | 102 | -10
COc1ccc2cc3cc(C(=O)NCCN4CCN(c5ccccc5F)CC4)sc3nc2c1 | 103 | 91 | 103 | ·
CCN(Cc1ccc(OC)c(F)c1)C(=O)C1CCCO1 (stereo unspecified) | 92 | 90 | · | 19
O=C1CSC(=O)N1c1ccccc1 | 97 | 90 | 105 | -9
O=C1C=CC(=O)C(Sc2nnnn2-c2ccccc2)=C1 | 62 | 37 | 102 | -16
CCC1CCCCN1C(=O)c1nn(-c2ccc(OC)cc2)c(=O)c2c1c1ccccc1n2C (stereo unspecified) | 98 | 99 | 102 | 9

# (list continues)
SMILES,Sa growth 42C,Sa growth 42C second temp,GIV-Gai inh,HCMV UL50-53 inh
c1ccc(-c2csc(NC3=NCCCCC3)n2)cc1,88,93,·,16
O=C(O)CCC(=O)N1N=C(c2ccc(Cl)cc2)CC1c1cccs1 (stereo unspecified),·,·,99,-69
CC(=O)Nc1cc(C(=O)NCCN(C)C)ccc1Sc1ccc(Cl)cc1,98,89,104,·
Cc1ccc(-c2noc(N3CCC(C(=O)NCc4ccccc4)CC3)n2)cc1,·,·,99,9
Cc1ccc(/C=N/NC(=S)N2CCOCC2)cc1,63,18,106,-53
[N-]=[N+]=NCc1noc(-c2ccccc2)n1,69,91,·,-4
Cc1cc(C)cc(NS(=O)(=O)c2ccc3[nH]cc(C(=O)NCc4ccccc4)c(=O)c3c2)c1,111,102,103,-1
CCOC(=O)c1ccccc1NC(=S)N1CC(C)CC(C)C1 (stereo unspecified),98,91,104,·
COC(=O)c1nc(Cl)c(Cl)c(Cl)c1Cl,100,91,111,-5
CCc1cc2c(cc3c(=O)n(CC(=O)NC4CCCCC4)ncn32)s1,122,90,97,-22
Cc1cc(C)cc(NC(=O)C2CCN(c3nc(C)cc(C)n3)CC2)c1,89,91,102,-6
CN1CCN(CCCNC(=O)Cn2cccc2C(=O)c2ccccc2)CC1,94,86,104,-8
CCC(C(=O)NC1CCCCC1)n1nc(C)c2c(C)n(-c3ccccc3)nc2c1=O (stereo unspecified),119,86,104,-32
O=C(O)CC1C(=O)NCCN1C/C=C/c1ccccc1 (stereo unspecified),102,91,103&105,-18&-6
Cc1ccc(NC(=O)c2c(C)nc3sc(C(=O)Nc4ccc(F)cc4)c(N)c3c2-c2ccccc2Cl)c(C)c1,94,87,101,-11
C1=CCC(/C=N/Nc2nc3ccccc3o2)CC1 (stereo unspecified),82,85,·,-27
O=C(CCS(=O)(=O)c1ccccc1)N1CCc2ccccc21,94,92,106,-30
CCn1c(C(=O)O)c(CC(=O)N(C)c2cccc(C(F)(F)F)c2)c2ccccc21,·,·,98,-16
C=CCNc1nc2ccccn2c(=O)c1/C=C1\SC(=S)N(Cc2ccc3c(c2)OCO3)C1=O,125,78,-27*,·
CN1C(=O)Cc2cc(S(=O)(=O)N(C)CCc3noc(-c4ccccc4)n3)ccc21,·,·,98,9
COc1cccc(CNC(=O)CSC2=Nc3ccccc3N=C(c3ccccn3)C2)c1,·,·,104,3
CNc1ccccc1C(=O)OCC(=O)c1ccc(F)cc1,93,91,·,-24
CCc1c(C)sc(NC(=O)C#Cc2ccccc2)c1C#N,101,75,101,-30
CC(C)Oc1ccc(C2CC(=O)N(C)C2=O)cc1 (stereo unspecified),104,103,98,-17
Cc1ccc(C(=O)c2cn(Cc3ccccc3)c3c(F)cc(F)cc3c2=O)cc1,70,88,98,4
Cc1ccc(C2=Nc3ccccc3N(CC(=O)NCc3ccc(Cl)cc3)C(=O)C2)cc1C,97,85,98,·
CCn1cc(C(=O)Nc2ccc(C(C)C)cc2)c2cc(OC)c(OC)cc2c1=O,104,104,104,1
COCCn1c(SCC(=O)Nc2ccc(C(F)(F)F)cc2)nc2c([nH]c3ccccc32)c1=O,97,86,100,·
CCCCN=C1NN=C(c2ccc(Cl)cc2)C(C)S1 (stereo unspecified),77,86,·,-39
CCOC(=O)C1=C(CS(=O)(=O)c2c(C)cc(C)cc2C)NC(=O)NC1c1cccc(OC)c1 (stereo unspecified),98,94,106,-5
CCOC(=O)c1cn(C)c(C(=O)OCC)c1O,101,89,103,-10
Cn1c(SCCN2CCCC2)nnc1-c1ccncc1,107,91,106,-8
Cc1cccc(N2CCN(C(=O)C3CCN(S(=O)(=O)c4c(C)noc4/C=C/c4ccccc4F)CC3)CC2)c1C,100,89,106,·
Cc1ccc(N2CCCC2=O)cc1,·,·,104,-15
Cc1ccc(-c2ccnc3nc(-n4cccc4)nn23)o1,·,·,102,-38
COCCCNC(=O)c1cnn(-c2ccccc2Cl)c1C1CCN(C(=O)OC(C)(C)C)CC1,113,93,107,·
COc1cc(C(=O)N(CCC#N)Cc2ccncc2)cc(OC)c1OC,104,102,105,7
COc1ccccc1CNC(=O)c1ccc(N2CCCC2)c(NC(=O)NCc2ccc(C)cc2)c1,98,95,101,·
Cc1ccc(CN2CCC(CNC(=O)CCn3cccn3)CC2)cc1,100,80,105,-30
Oc1[nH]c2ccccc2c1C1=NCCC1,91,80,102,-11
CCN1CCC(N(Cc2ccco2)C(=O)Nc2ccccc2C(F)(F)F)CC1,89,88,97,-27
COc1cc2c(cc1OC)C(COc1ccc3c(C)cc(=O)oc3c1)N(C(=O)c1ccc(Cl)cc1)CC2 (stereo unspecified),99,85,105,-13
COc1ccccc1N1CCN(C(=O)c2cc3c(=O)n(Cc4cccs4)ccc3nc2C)CC1,94,91,96,·
Cc1ccc(CCNC(=O)c2ccc(CSCc3ccccc3Cl)o2)cc1,79,47,100,·

# Compound activity (PubChem BioAssay)
